Beta apoptosis – blocks beta cell apoptosis | INS-1E cytokine-induced death, ATP luminescence, 48 h; percent of positive-control rescue, neutral wells zero | protection from apoptosis, % (concentration not given with the values) | 300,000 tested, 0.8% active;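 active means all replicates at 75% or more, or half of them and the mean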;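 further: 0% = cytokine-treated negative control wells and 100% = positive control rescue; higher means more ATP so stronger rescue from cytokine killing; wells of about 40 µL received 100 nL stock; the first replicate is given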
Calb FLC – C. albicans growth modulation with fluconazole. C. albicans CaCi-2 (fluconazole-resistant clinical isolate) + fluconazole, Alamar Blue growth, 48 h. growth inhibition, % (test concentration not listed). 300,000 tested, 0.57% active. AID 1979;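 active means most replicates above 75%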;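 further: all wells also contain fluconazole at 8 µg/ml as a sub-toxic cotreatment; 0% = median of DMSO wells and 100% = median of geldanamycin control wells; wells of about 8 µL received 7.5 nL stock; the first replicate is given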
T cruzi inh – T. cruzi replication inhibition. T. cruzi beta-gal in NIH3T3, luminescence, 90 h. 300,000 tested, 1.4% active. inhibition, % (no concentration beside the values);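 active means mean inhibition across valid replicates above about 55%, limit read from the data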;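 further: signal also drops with host cell toxicity which is not excluded here; 0% = plate median of DMSO wells and 100% = zero luminescence signal; higher percent means less beta-gal luminescence so fewer parasites; stock transfer was 50 nL into about 50 µL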
Ecoli rRNA inh – inhibits bacterial ribosomal RNA function over humanized ribosomes; GFP signal change (wild-type ribosome), % (no concentration beside the values); E. coli WT GFP vs humanized-ribosome RFP mutants, fluorescence, 24 h; active compounds read low; DMSO median 0, no signal -100; 350,000 tested, 1.6% active;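 active means significant combined selectivity score with lowered wild-type GFP, culture density cut under 30%, mutant RFP and density less affected; inactive means any of these conditions unmet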; further: one replicate is shown; some compounds called inactive have numbers as strong as hits
B2AR ag – agonists of human beta-2 adrenergic receptor inducing internalization; AID 504454; Am2.2-beta2AR cells, FAP receptor internalization, flow cytometry; reference of the scale not given here; P07550; response, % (no concentration beside the values); 340,000 tested, 0.43% active;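 active means response above a set limit, near 3 SD of response in nonfluorescent compounds, cut at about 42% in these data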;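 further: stock transfer was 100 nL into about 11 µL; a reference agonist was the positive control; negative values mostly stem from fluorescent compounds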
ALR H2O2 inh – blocks human ALR sulfhydryl oxidase activity | purified ALR, DTT oxidation, H2O2 HRP-luminol luminescence | 290,000 tested, 3.8% active | inhibition, % (concentration not given with the values) | P55789;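 active means mean and each replicate at 75% or more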;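 further: stock transfer was 7.5 nL into about 7.5 µL; 0% = neutral wells and 100% = wells with inactivated enzyme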
Bfl-1 A1 inh – inhibitors of the anti-apoptotic protein A1, read as caspase activation; AID 2462; MEF A1-2A-BIM cells, Caspase-Glo 3/7 luminescence, 3 h; percent of clofoctol response, vehicle zero; caspase activation, % (test concentration not listed); 330,000 tested, 0.066% active;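 active means over half of replicate activation scores above 10%, or exactly half above 10 with the replicate mean above 10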;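 further: wells of about 30 µL received 50 nL stock; many hits fall short of the cut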
LANA-H2A inh – blocks KSHV LANA binding to histone H2A/H2B | inhibition, % (concentration not given with the values) | 320,000 tested, 0.6% active | Q9QR71 | cell-free LANA-H2A/H2B peptide, fluorescence polarization; in the data active means inhibition mostly above about 10%, no sharp cut-off; inactive means mostly below about 6.7%;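 further: stock transfer was 7.5 nL into about 10 µL; 0% = median of vehicle wells and 100% = median of positive control wells; one replicate is shown; the record names a cut of 25% in any replicate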
Target sequence (Q9QR71 whole entry, looked up): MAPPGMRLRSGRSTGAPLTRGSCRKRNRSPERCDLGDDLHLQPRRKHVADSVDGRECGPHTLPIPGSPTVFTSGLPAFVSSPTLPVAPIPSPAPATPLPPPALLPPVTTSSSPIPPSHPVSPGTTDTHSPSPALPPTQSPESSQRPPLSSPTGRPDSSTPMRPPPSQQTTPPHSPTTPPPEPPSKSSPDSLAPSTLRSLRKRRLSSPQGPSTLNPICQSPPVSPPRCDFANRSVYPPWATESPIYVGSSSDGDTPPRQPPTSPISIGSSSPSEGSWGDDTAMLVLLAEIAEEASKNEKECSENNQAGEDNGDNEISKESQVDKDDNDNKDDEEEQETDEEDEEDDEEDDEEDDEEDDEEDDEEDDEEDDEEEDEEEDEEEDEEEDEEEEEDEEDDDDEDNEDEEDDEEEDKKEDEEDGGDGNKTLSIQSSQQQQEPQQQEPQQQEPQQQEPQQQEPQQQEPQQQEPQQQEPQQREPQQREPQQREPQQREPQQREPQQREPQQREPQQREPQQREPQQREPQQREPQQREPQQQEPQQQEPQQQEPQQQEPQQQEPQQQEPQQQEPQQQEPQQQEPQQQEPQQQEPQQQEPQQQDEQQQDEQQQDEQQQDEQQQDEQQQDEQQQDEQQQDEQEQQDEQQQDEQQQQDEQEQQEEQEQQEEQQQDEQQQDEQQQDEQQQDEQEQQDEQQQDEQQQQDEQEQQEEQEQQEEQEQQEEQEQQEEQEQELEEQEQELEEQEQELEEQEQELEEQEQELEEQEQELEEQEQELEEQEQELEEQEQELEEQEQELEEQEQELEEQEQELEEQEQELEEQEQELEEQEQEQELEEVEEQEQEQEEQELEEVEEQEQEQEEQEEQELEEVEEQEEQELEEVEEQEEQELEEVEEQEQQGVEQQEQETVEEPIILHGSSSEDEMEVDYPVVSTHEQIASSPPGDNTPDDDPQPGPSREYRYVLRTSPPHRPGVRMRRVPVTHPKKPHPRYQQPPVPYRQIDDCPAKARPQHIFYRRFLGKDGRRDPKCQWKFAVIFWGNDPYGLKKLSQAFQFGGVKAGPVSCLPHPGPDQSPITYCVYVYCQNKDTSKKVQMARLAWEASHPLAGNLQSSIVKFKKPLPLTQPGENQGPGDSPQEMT
Ecoli rRNA inh OD600 – also measured in Ecoli rRNA inh; calls as there; OD600 change, %; measured here: OD600 growth;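 optical density of the mix in the first replicate; 0 = DMSO median and -100 = no signal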
Ecoli rRNA inh RFP – recorded beside Ecoli rRNA inh, whose call it bears; RFP signal change, %; measured here: RFP humanized mutant strains;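 first replicate; 0 = DMSO median and -100 = no signal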
Active calls of the source: *; · = no result given. The list is partial (hit frequency here may not be typical).

SMILES	Beta apoptosis	Calb FLC	T cruzi inh	Ecoli rRNA inh	Ecoli rRNA inh OD600	Ecoli rRNA inh RFP	B2AR ag	ALR H2O2 inh	Bfl-1 A1 inh	LANA-H2A inh
O=C(OCN1C(=O)c2ccccc2C1=O)c1cccc(S(=O)(=O)N2CCOCC2)c1	-11	-3	-3	9	6	-4.0	0	11	0.1	4.0
Cc1cccc(N2CCN(C(=O)C3CCN(S(=O)(=O)N4CCOCC4)CC3)CC2C)c1 (configuration not stated)	6	-20	-11	-6	-3	-2.1	3	33	0.3	-6.1
Cc1cccc(C)c1NC(=O)CNC(=O)C1CCCC1	3	·	·	12	15	1.1	2	-2	-1.3	·
CCOC(=O)C1=C(C)OC(N)=C(C#N)C1c1ccc(C)s1 (configuration not stated)	0	10	-12	10	-10	-0.3	6	·	0.9	-3.6
CS(=O)(=O)Oc1ccc(/C=C2\C(=N)N3N=C(CC(=O)N4CCOCC4)SC3=NC2=O)cc1Cl	-7	-5	3	3	3	-1.4	-1	82*	-0.4	-12
CCOC(=O)[C@H]1[C@H]2COc3ccc(Cl)cc3[C@@H]2N2C(=O)CN(Cc3ccccc3)C(=O)[C@@]12C	-1	·	·	-13	-19	-2.2	3	-3	-0.6	7.9
CS(=O)(=O)c1ccccc1-c1nnc(NC(=O)c2ccc(S(=O)(=O)N3CCCC3)cc2)o1	-1	-1	-4	-34	-37	-5.6	-6	·	-0.1	·
Fc1cccc(CNCc2ccc3c(c2)OCO3)c1	-5	-19	14	6	4	-0.1	-9	·	0.9	1.2
Cc1cc(NC(=O)CSc2nnc(-c3ccco3)n2C)no1	-6	·	·	-2	-5	-0.9	-2	-2	-0.1	-0.2
O=c1c2ccccc2nc(/C=C/c2ccccc2)n1CCCO	-1	9	-3	-5	20	3.0	-13	61	0.8	2.7
CCNC(=O)Nc1ccccc1C(=O)OC	·	6	-23	14	7	-1.1	0	13	-0.2	0.0
Cc1cc(Cl)c(S(=O)(=O)NCc2cccnc2)cc1OCC(=O)NC1CCCCC1	-7	-1	2	·	·	·	-10	-2	0.6	2.7
O=C(CN1CCOCC1)NNC(=S)Nc1ccc(Cl)cc1	-3	0	-1	-7	6	6.9	0	·	1.6	0.0
NNC(=O)CCN1CCN(Cc2ccccc2)CC1	-7	-7	-2	1	-12	-2.2	2	4	-0.1	0.8
Cc1ccc(CN(C(=O)c2c(F)cccc2F)C2CC(C)(C)NC(C)(C)C2)o1	-1	4	0	·	·	·	18	-1	-0.7	2.6
Cc1ccc(S(=O)(=O)N2CCC(=O)N(CCOC(=O)Nc3ccc(F)cc3)CC2)cc1	6	8	1	1	-2	0.7	6	·	-0.7	0.3
Cc1cc(=O)oc(C)c1C(=O)NC1CC(C)(C)NC(C)(C)C1	-1	15	-34	·	·	·	6	1	-0.4	1.6
Cc1nn(-c2ccccc2)c(C)c1P(=O)(c1ccccc1)N(C)C (configuration not stated)	-14	4	-3	6	4	-3.2	7	·	0.8	1.3
Cc1ncc(CC(=O)n2cc(C(=O)c3cc(Cl)ccc3O)cn2)s1	-7	2	-2	·	·	·	-2	-4	0.8	-6.7
Cc1cc([N+](=O)[O-])nn1CCCC(=O)Nc1cccnc1Cl	-4	-5	-14	3	2	0.2	0	-4	0.2	1.2
CC#CC(=O)N1CCC(CCc2ccccc2)(C(=O)OCC)CC1	-7	1	-20	-20	-24	-3.1	5	-10	0.5	2.5
Cc1c(C(=O)Nc2nccs2)sc2nc(-c3cccs3)cc(C(F)(F)F)c12	35	-15	53	·	·	·	10	-7	0.0	2.9
Cc1nn(C(=O)c2cc([N+](=O)[O-])ccc2Cl)c(C)c1Br	-7	2	-7	-4	11	2.3	9	-4	-0.8	-4.7
COc1cccc(-n2c(Cc3cc(=O)[nH]c(=O)[nH]3)nnc2SCC(=O)N2CCC(C)CC2)c1	2	9	4	·	·	·	-4	-14	1.3	-2.0
CC(C)(NC(=O)c1cc(Cl)c2ccccc2c1O)C(=O)O	1	21	-18	80	-17	21	1	61	-2.3	2.0
(further entries)
SMILES	Beta apoptosis	Calb FLC	T cruzi inh	Ecoli rRNA inh	Ecoli rRNA inh OD600	Ecoli rRNA inh RFP	B2AR ag	ALR H2O2 inh	Bfl-1 A1 inh	LANA-H2A inh
O=C(CC(c1ccc(F)cc1)c1ccco1)Nc1nccs1 (configuration not stated)	-3	-15	2	-14	3	-0.5	4	25	-0.1	-1.3
COc1ccc(/C(C)=N/NC(=O)CNC(=O)c2cccnc2)cc1OC	-2	-1	6	9	11	3.0	10	-18	1.2	10
CC(=O)C1=C(O)CCCC1=NCc1nc2ccccc2[nH]1	2	-9	-7	·	·	·	-2	-13	1.2	2.7
O=C1NC(Cc2ccc(O)cc2)c2nc3ccccc3c(=O)n2-c2cc(Cl)ccc21 (configuration not stated)	3	·	·	-5	-6	-2.4	·	8	-1.7	3.7
CCc1ccc(-n2c(=S)sc3c(=O)n(-c4ccccc4C)c(SCC(=O)O)nc32)cc1	-4	1	-2	-20	-15	-6.4	7	-6	-0.4	-3.9
COCCn1c(-c2ccc(Cl)cc2)cnc1SCC(=O)NCCc1ccc(OC)c(OC)c1	-3	20	22	-22*	-15*	1.4*	2	-3	0.8	3.4
CSc1ccc(C(=S)N2CCN(C)CC2)cc1	-3	12	3	·	·	·	-19	1	-0.6	-0.4
CCc1cc(-c2n[nH]c(=S)n2N)n(C)n1	2	5	-10	·	·	·	8	95*	-0.4	-3.8
CCOC(=O)COc1c(C=O)cc(Br)cc1OC	-4	7	-19	·	·	·	5	44	0.8	-0.3
CCOC(=O)C1CCN(C(=O)Cc2ccc(OC)c(OC)c2)CC1	0	-9	-9	·	·	·	2	-7	0.1	-2.2
O=C(Cc1cccs1)Nc1ccc(-c2nnn(CC(=O)N3CCOCC3)n2)cc1	-7	4	-37	·	·	·	·	-7	0.3	5.8
Cc1ccc(Oc2ccc(S(=O)(=O)Nc3ccc(C(=O)O)cc3)cc2)cc1	-2	·	·	-23	-40	-10	3	98*	1.3	5.3
ONC(=Nc1ccc(Cl)cc1)c1ccc(Cl)cc1	1	5	-13	·	·	·	6	78*	0.0	-0.7
O=C(Nc1cccc(C(=O)N2CCOCC2)c1)c1ccccc1	-4	26	-21	·	·	·	-1	-2	-0.2	2.7
COC(=O)C1=C(C(=O)OC)SC(=C2C(=S)C(C)(C)N(C(=O)C3CC3)c3ccccc32)S1	5	12	22	·	·	·	2	-3	0.2	11
Cc1ccc(C(=O)NCCCNC(=O)c2ccco2)cn1	1	1	13	14	16	-1.4	5	·	0.6	-8.9
CCCN1CCC(=O)N([C@H](CSc2ccc(C)cc2)Cc2ccccc2)CC1	·	-7	17	-50	-77	-28	-6	·	·	·
Clc1ccc(Cn2ncc3c(N4CCCCC4)ncnc32)c(Cl)c1	10	-3	16	·	·	·	-6	0	0.3	-0.4
CCOc1ccc(-c2nnc3sc(COc4ccc(C)cc4)nn23)cc1	-1	-1	-2	·	·	·	7	-1	0.9	4.7
COC(=O)c1sccc1NC(=S)N1CCCCC1C (configuration not stated)	-1	-3	1	·	·	·	3	38	1.2	-1.3
O=C(/C=C/c1ccc([N+](=O)[O-])cc1)OCC(=O)N1CCCCCC1	-2	·	·	·	·	·	-4	-3	-1.4	2.6
O=C1c2ccccc2C(=O)N1S(=O)(=O)c1ccccc1	·	-2	-5	15	18	1.4	0	-11	-0.6	-1.4
O=C(Cn1nnc(-c2ccccc2)n1)Nc1ccccc1N1CCOCC1	-2	0	14	·	·	·	-19	-13	0.7	-2.0
CC(C)c1nc2ccccc2c2nnc(SCC(=O)NCc3ccco3)n12	6	19	-17	·	·	·	-5	-5	-0.1	2.2
CCN(C(=O)CSc1nc(C)c(C)c(C)n1)C1CCS(=O)(=O)C1 (configuration not stated)	0	·	·	5	12	-2.3	1	-4	-0.5	-1.1
Additional compounds:
SMILES	Beta apoptosis	Calb FLC	T cruzi inh	Ecoli rRNA inh	Ecoli rRNA inh OD600	Ecoli rRNA inh RFP	B2AR ag	ALR H2O2 inh	Bfl-1 A1 inh	LANA-H2A inh
Cc1ccc2cc(CN(C(=O)c3ccco3)c3cccc(C)c3C)c(=O)[nH]c2c1	5	7	8	8	1	-3.4	-5	12	-0.4	-4.9
CC(C)(C)c1ccc(C(=O)NCC(=O)OCCN2C(=O)c3ccccc3C2=O)cc1	2	-2	-9	-5	-10	3.5	-7	5	0.3	0.9
O=C(O)C1Nc2ccc(Br)cc2C2C=CCC12 (configuration not stated)	-2	20	0	·	·	·	3	30	0.2	-3.7
Cn1c(N)c(C(=O)COC(=O)CNC(=O)c2ccccc2)c(=O)n(C)c1=O	-4	·	·	8	10	4.8	-1	3	1.2	4.0
Cc1sc2ncnc(N3CCC(C(=O)Nc4ccc(C#N)cc4)CC3)c2c1C	-8	-4	30	2	2	2.4	-2	-2	-0.4	1.0
CCNC(=S)N(CCN(C)C)Cc1cc2cc(OCC)ccc2[nH]c1=O	-4	-6	-5	·	·	·	0	-11	0.3	0.9
CCNc1nc(NCC)nc(N/N=C/c2ccc(O)c(O)c2)n1	2	27	3	4	10	4.5	0	99*	-0.1	2.9
O=C(Nc1cc(Cl)ccc1Cl)N1CCCC1	-2	-1	-5	-4	-1	-3.2	-1	1	-0.2	-7.1
FC(F)(F)c1cnc(Oc2ccc(-c3nnco3)cc2)c(Cl)c1	-5	0	8	·	·	·	-7	·	0.7	7.3
Clc1ccc2c(N/N=C/c3cccnc3)ccnc2c1	26	44	65*	-2	10	0.4	-8	-9	0.2	13
Cc1ccc(C2=NN(S(C)(=O)=O)C(c3ccc4c(c3)OCO4)C2)cc1 (configuration not stated)	-2	1	-5	8	13	-1.1	-6	-1	-4.2	2.6
CC(Oc1ccc([N+](=O)[O-])cc1Cl)C(=O)Nc1ccc(C(N)=O)cc1 (configuration not stated)	7	-6	3	12	3	-2.1	-10	-7	0.0	6.1
COc1cccc(-c2cc(C(=O)NC3CC3)c3ccccc3n2)c1	10	-1	-2	0	3	-1.5	-7	0	-0.7	-5.5
CCCn1c(N)c(N(CCOC)C(=O)Cc2ccc(S(=O)(=O)N3CCOCC3)s2)c(=O)[nH]c1=O	-18	8	-15	10	4	0.5	3	-33	0.1	1.8
COc1ccc(NC(=O)c2ccccc2SC)cc1	-2	-28	0	-8	-14	-3.1	-1	-5	-2.1	-1.8
O=C(NNC(=O)C1CCN(S(=O)(=O)c2ccc(Cl)cc2)CC1)c1ccc(S(=O)(=O)N2CCCCC2)cc1	-3	-8	-9	7	6	1.2	-2	-8	1.4	2.7
Cc1cccc(N(C)C(=O)COc2cc(=O)n(C)c3ccccc23)c1	-4	1	-1	-5	-13	-0.6	-25	·	0.4	4.3
O=C(NCC1CCCO1)C(c1ccc(F)cc1)N(CC1CCCO1)C(=O)c1ccc(-c2ccccc2)[nH]1 (configuration not stated)	4	21	2	-10	-28	2.2	-1	·	-0.4	1.0
Nc1cc(C(=O)OCC(=O)NCC2CCCO2)ccc1Cl (configuration not stated)	·	-5	-8	·	·	·	0	-6	-0.5	1.9
O=C(CN1c2cccc3cccc(c23)S1(=O)=O)N1CCCCC1	2	·	·	4	-2	-3.2	16	-25	0.4	1.0

Bioassay records from PubChem BioAssay.
